Mtb betalactam: beta-lactam sensitization of Mtb H37Rv; M. tuberculosis H37Rv growth with meropenem, percent inhibition; hits of this screen are not shown here; inhibition, % at 25 µM; hit rate 0.27% among 330,000; AID 434955;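 active = about 74% or more and at least 40 points above the plate without the antibiotic, then above 30% in a dose series; inconclusive = first-round hits that could not be retested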;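 also: growth measured after seven days incubation then overnight dye step; 0% = bacteria only wells and 100% = bacteria with antibiotic; twin plates without the antibiotic show which effects depend on it; some results filed as inactive read as strong as hits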
An asterisk follows results filed as active; ? = inconclusive. The list is partial; count on the stated rates, not on these rows.

| molecule | Mtb betalactam |
| --- | --- |
| Cc1ccc(C(=O)NCC(=O)NCc2ccc(Cl)cc2)s1 | 2 |
| CN(CC1CCOCC1)C(=O)c1ccc2nc(Cc3cccc(Cl)c3)oc2c1 | ? |
| NC(=O)c1ccsc1NC(=O)COC(=O)Cc1ccccc1 | 2 |
| Cn1c(SCC(=O)NC2CC2)nnc1-c1ccc(Cl)cc1 | -1 |
| COCc1c(C(=O)N2CCN(CCOc3ccccc3)CC2)oc2ccccc12 | -4 |
| Cc1nc2ccc(NC(=O)[C@H](C)N3C(=O)C4CC=CCC4C3=O)cc2s1 (stereo not given in full) | 0 |
| CCCNC(=O)C(Cc1ccc(OC)cc1)NC(=O)c1ccc(Cl)cc1 (stereo not given) | -8 |
| COc1ccc(N2CCN(CCS(=O)(=O)c3cc(Cl)ccc3Cl)CC2)cc1 | 3 |
| Cc1c(C(=O)N2CCN(CC(=O)Nc3ccccc3Cl)CC2)oc2ccc(Br)cc12 | 2 |
| CCCOc1ccc(C(=O)CCC(=O)NNC(=O)c2cccs2)cc1 | 20 |
| Cc1cc(C)cc(C(=O)NCC(=O)OCC(=O)NC2CC2)c1 | -3 |
| CCCCCC/C(C=O)=C\c1ccccc1 | -1 |
| CC(C)(C)C(=O)O[C@H]1CC[C@@]2(C)C(=CC(=O)C3C2CC[C@]2(C)C(=O)[C@H](O)CC32)C1 (stereo not given in full) | -12 |
| COc1ccc(NC(=O)N(C)C[C@H]2Oc3ccc(NC(=O)c4ccncc4)cc3C(=O)N([C@H](C)CO)C[C@@H]2C)cc1 | 9 |
| CCN(C[C@H]1N[C@@](Cc2ccccc2)(C(=O)OC)[C@H]2C(=O)N(Cc3ccccc3)C(=O)[C@@H]12)S(=O)(=O)c1ccc(F)cc1 | -8 |
| O=C(OCc1c(-c2ccccc2)ncc2ccccc12)c1ccc(Br)cc1 | 7 |
| COc1cccc(NC(=O)CN(C)C(=O)Cn2[nH]c(=O)c3ccccc3c2=O)c1 | 1 |
| Cc1cccc(NC(=O)c2ccc(OCc3c(C)noc3C)cc2)n1 | 1 |
| COc1ccc(-n2nnnc2SC(C)C(=O)NC2CCCC2)cc1 (stereo not given) | -6 |
| Cc1cccc(NC(=O)CN2CCN(C(=O)C3CCC3)CC2)c1C | -4 |
| CCCCC1(C)NC(=O)N(CC(=O)N2CCc3ccccc32)C1=O (stereo not given) | 5 |
| O=C1C=C(c2ccc(-c3ccccc3)c(F)c2)C[C@@H](c2ccc(Cl)cc2)C1 | -4 |
| COC(=O)C1=C(c2ccc(F)cc2F)C[C@@H]2CC[C@H]1N2C(=O)N1CCC(O)CC1 | 7 |
| O=C(O)c1cc(NC(=O)c2ccccc2F)cc(NC(=O)c2ccccc2F)c1 | -1 |
| CCOC(=O)c1c(C)[nH]c(C(=O)OCC(=O)N(C)CC(=O)Nc2ccccc2Cl)c1C | -6 |
| CC(C)C[C@H]1CN=C(Nc2ccccc2)N1CCC(C)c1ccccc1 (stereo not given in full) | 8 |
| Cc1ccnc(NC(=O)CCS(=O)(=O)c2ccccc2)c1 | 1 |
| CN1N=C(C(=O)N2CCCC(Nc3ccc(F)c(F)c3)C2)CCC1=O (stereo not given) | ? |
| CCCC(=O)Nc1cc(S(=O)(=O)N2CCOCC2)ccc1N1CCCCC1 | -2 |
| COc1cc(C(=O)COC(=O)c2c(C)noc2C)cc(OC)c1OC | -4 |
| CC(C)C(NC(=O)c1ccc(F)cc1)C(=O)N1CCN(C(=O)c2ccco2)CC1 (stereo not given) | -6 |
| O=C(COc1ccc(F)cc1)NCCNC(=O)COc1ccc(F)cc1 | 4 |
| Cc1cc(=O)c(C(=O)Nc2cccc(N3CCCC3=O)c2)nn1-c1ccccc1F | -7 |
| CC(C)(C)OC(=O)C[C@@H]1C/C=C\C[C@@H](CC(=O)NCCO)C(=O)N2CCC[C@H]2COC1=O | -4 |
| O=C(COC(=O)/C=C/c1ccc2c(c1)OCO2)NCc1ccccc1 | -3 |
| O=C(COC(=O)CCc1nc2ccccc2c(=O)[nH]1)Nc1ccccc1 | 1 |
| CCC1CCc2sc(C(=O)NCC(c3ccccc3OC)N3CCCC3)cc2C1 (stereo not given) | 9 |
| C=CCCN(Cc1ccccc1)S(=O)(=O)c1cc(Br)ccc1Br | 1 |
| COc1ccc([C@H]2C(C(=O)O)=C[C@@H](C(C)(C)C)N2S(=O)(=O)c2ccccc2)cc1 | 3 |
| COc1cc(C(=O)COC(=O)c2ccc([N+](=O)[O-])o2)cc(OC)c1OC | 0 |

Nothing new here: 14 of the compounds above.
| molecule | Mtb betalactam |
| --- | --- |
| Cc1ccnc(NC(=O)CCS(=O)(=O)c2ccccc2)c1 | 1 |
| CN1N=C(C(=O)N2CCCC(Nc3ccc(F)c(F)c3)C2)CCC1=O (stereo not given) | ? |
| CCCC(=O)Nc1cc(S(=O)(=O)N2CCOCC2)ccc1N1CCCCC1 | -2 |
| COc1cc(C(=O)COC(=O)c2c(C)noc2C)cc(OC)c1OC | -4 |
| CC(C)C(NC(=O)c1ccc(F)cc1)C(=O)N1CCN(C(=O)c2ccco2)CC1 (stereo not given) | -6 |
| O=C(COc1ccc(F)cc1)NCCNC(=O)COc1ccc(F)cc1 | 4 |
| Cc1cc(=O)c(C(=O)Nc2cccc(N3CCCC3=O)c2)nn1-c1ccccc1F | -7 |
| CC(C)(C)OC(=O)C[C@@H]1C/C=C\C[C@@H](CC(=O)NCCO)C(=O)N2CCC[C@H]2COC1=O | -4 |
| O=C(COC(=O)/C=C/c1ccc2c(c1)OCO2)NCc1ccccc1 | -3 |
| O=C(COC(=O)CCc1nc2ccccc2c(=O)[nH]1)Nc1ccccc1 | 1 |
| CCC1CCc2sc(C(=O)NCC(c3ccccc3OC)N3CCCC3)cc2C1 (stereo not given) | 9 |
| C=CCCN(Cc1ccccc1)S(=O)(=O)c1cc(Br)ccc1Br | 1 |
| COc1ccc([C@H]2C(C(=O)O)=C[C@@H](C(C)(C)C)N2S(=O)(=O)c2ccccc2)cc1 | 3 |
| COc1cc(C(=O)COC(=O)c2ccc([N+](=O)[O-])o2)cc(OC)c1OC | 0 |

New compounds follow
| molecule | Mtb betalactam |
| --- | --- |
| CCN(c1ccc(NC(=O)COC(=O)c2ccc([N+](=O)[O-])o2)cc1)C(C)C | 85 |
| O=C(NCCc1ccccc1)c1cc([N+](=O)[O-])ccc1N1CCOCC1 | -5 |
| CC[C@@H](C)[C@@H]1CN([C@@H](C)CN2CCC[C@H]2CN2C(N)=NC[C@H]2C(C)C)C(=N)N1CCc1ccc(Cl)c(Cl)c1 | 94 |
| N#Cc1c(SCC(=O)Nc2ccc(Cl)cc2Cl)sc2c(O)cc(=O)[nH]c12 | -4 |
| O=C(Nc1ccccc1)Nc1ccc(Nc2ccccc2)cc1 | -8 |
| O=C(CCCNC(=O)c1ccc(Cl)cc1)Nc1ccc(Br)cc1 | -4 |
| Cc1cccnc1NC(=O)CNC(=O)C1CCCCC1 | -5 |
| CC(=O)O[C@@H]1CC[C@]2(C)C3CC[C@]4(C)C(=O)[C@H](O)CC4C3[C@@H](OC(C)=O)C[C@H]2C1 (stereo not given in full) | -10 |
| C[C@H](CO)N1C[C@H](C)[C@@H](CN(C)S(=O)(=O)c2ccc(F)cc2)Oc2c(NC(=O)NC3CCCCC3)cccc2C1=O | 4 |
| COCc1nnc(NC(=O)COc2ccc3c(c2)OCO3)s1 | -13 |
| O=C(Cc1cccs1)N1CCN(S(=O)(=O)c2ccc(F)c(F)c2)CC1 | -14 |
| Cc1cccc(C(=O)O[C@@H]2[C@H](Cc3ccccc3)NS(=O)(=O)[C@H]3C[C@@H]4C=C[C@]23O4)c1 | -2 |
| Cc1ccc(S(=O)(=O)Nc2c(C)n(C)n(-c3ccccc3)c2=O)cc1C(=O)NCc1ccccc1 | -2 |
| CCOC(=O)c1cccc(OCC(O)CNCCOc2ccccc2F)c1 (stereo not given) | -7 |
| Cc1ccccc1OCC(=O)Nc1cnn(CCCC(=O)O)c1 | -3 |
| NC(=O)c1ccsc1NC(=O)COC(=O)c1cnccn1 | -6 |
| O=c1c2c([N+](=O)[O-])cc([N+](=O)[O-])cc2nc2ccccn12 | 3 |
| COc1ccccc1-n1c(SCC(=O)Nc2cccc(C(=O)O)c2)nnc1-c1ccccc1O | -3 |
| COc1ccc(C2Nc3ccccc3C(=O)N2NS(=O)(=O)c2ccc(C)cc2)c(OC)c1 (stereo not given) | -2 |
| Cc1ccc(CN(C)C(=O)c2cccc(S(=O)(=O)N3CCc4ccccc43)c2)cc1 | -14 |

Further results.
mol	Mtb betalactam
CC(C)C(=O)C1=Cc2cccc([N+](=O)[O-])c2OC1N1CCOCC1 (stereo not given)	-5
CN(C)S(=O)(=O)c1cc(NC(=O)C2=COCCO2)ccc1Cl	7
CC(NC(=O)COC(=O)C1CC1C)c1ccccc1 (stereo not given)	12
CSc1ncccc1C(=O)OCC(=O)c1cc(C)n(C)c1C	-5
CC1CCN(C(=O)CSc2nnc3ccccn23)CC1	-10
COC(=O)c1ccc(CNC(=O)Cn2cnc3c(OCc4ccccc4)ncnc32)cc1	2
Cc1cc(=O)[nH]c(SCC(=O)Nc2cccc(S(=O)(=O)N3CCOCC3)c2)n1	-1
Cc1c(N)cccc1[N+](=O)[O-]	11
CN1CCN(c2ccc(NC(=O)c3ccc(-c4ccccc4F)o3)cc2)CC1	78
O=C(COC(=O)CCN1C(=O)C2CC=CCC2C1=O)Nc1ccc(Cl)cc1F (stereo not given)	-6
Cc1cccnc1NC(=O)CNC(=O)c1ccccc1	-2
COc1ccccc1NC(=O)c1ccccc1C(=O)N(C)Cc1ccccc1	-1
CCOC(=O)c1ccc(NC(=O)c2nc[nH]c2C(=O)NCCCCNC(=O)c2[nH]cnc2C(=O)Nc2ccc(C(=O)OCC)cc2)cc1	-5
CN(C(=O)COC(=O)c1ccccc1C(=O)c1ccccc1)c1ccccc1	4
CC(=O)c1ccccc1OCCn1nc(C(=O)O)c2ccccc2c1=O	-1
COc1ccc(NC(=O)COC(=O)CN2C(=O)C3CCCCC3C2=O)cc1OC (stereo not given)	3
O=C(NCCc1nccs1)C1CCC(=O)N(CCc2ccc(Cl)cc2)C1 (stereo not given)	-7
Cc1ccnc2nc(C(=O)OCC(=O)N(CC(C)C)C3CCS(=O)(=O)C3)nn12 (stereo not given)	-6
Cc1cc(C)cc(C(=O)OCC(=O)NC(=O)NC2CCCC2)c1	0
CC(OC(=O)c1ccc(O)cc1)C(=O)Nc1ccc(Oc2ccccc2)cc1 (stereo not given)	-12
CCOc1ccc(C(=O)N[C@H](C(=O)NNC(=O)c2cccs2)C(C)C)cc1	0
CCc1cc(Cn2nc(-c3ccccc3)cc2C(=O)NCc2cccc(Br)c2)on1	1
CN(C)S(=O)(=O)c1cc(C(=O)Nc2ccccc2C(=O)NC2CC2)ccc1Cl	4
CC(C)NC(=O)NC(=O)CSc1ccc(S(=O)(=O)N2CCCC2)cn1	-4
O=C(COc1ccc(Cl)cc1Br)Nc1cccc(S(=O)(=O)N2CCCC2)c1	2
O=C(COC(=O)c1cc([N+](=O)[O-])ccc1Cl)NCCc1ccccc1	62
Cc1cccc(C(=O)OCC(=O)NC2CCCCCCC2)c1	-2
C=C(C)CN(CC)C(=O)CSc1ccc(S(=O)(=O)N2CCN(Cc3ccccc3)CC2)cn1	-3
CCCn1c(N)c(N(CCOC)C(=O)CSc2cc(C)c3cccc(C)c3n2)c(=O)[nH]c1=O	-7
CC(c1nnc(SCC(=O)N(C)C2CCS(=O)(=O)C2)n1-c1ccccc1)N(C)C (stereo not given)	-4
COc1cc2cnc(-c3ccccc3)c(-c3ccc([N+](=O)[O-])cc3)c2cc1OC	6
COC(=O)C1=CO[C@@H](O[C@@H]2O[C@H](CO)[C@@H](O)[C@H](O)[C@H]2O)C2C1CC(O)O[C@H]2C (stereo not given in full)	0
COc1cc(Br)c(CC(=O)NNC(=O)c2ccc(F)cc2)cc1OC	-2
O=C(COC(=O)c1cc(Cl)ccc1O)NNC(=O)c1ccccc1F	-3
CN(C(=O)c1ccc(NC(=O)Cc2cccc(NC(=O)C3CCN(C(=O)CCc4ccccc4)CC3)c2)cc1)C1CCCC1	5
Cc1sc2ncnc(N3CCN(S(=O)(=O)c4ccc(C(C)(C)C)cc4)CC3)c2c1C	-11
O=C(Nc1cccc(S(=O)(=O)N2CCOCC2)c1)c1ccccc1[N+](=O)[O-]	-10
CC1(C)Cc2cccc(OCC(=O)NCc3ccccc3F)c2O1	-3
CCN(CC)C(=O)c1nc[nH]c1C(=O)N1CCC(C)CC1	-3
COc1ccc(NC(=O)CSc2nc(SC)ns2)c(OC)c1	33
CC[C@]12c3[nH]c4ccccc4c3CCN1C(=O)C(CC(=O)NCCCN(C)C)C[C@@H]2C(=O)N1CCN(C(=O)C2CC2)CC1 (stereo not given in full)	-8
O=C(CCc1nc2ccccc2c(=O)[nH]1)Nc1cc(Cl)ccc1N1CCCCC1	-6
COCCN(Cc1ccccc1)C(=O)C1CCN(C(=O)Nc2ccccc2)CC1	-6
O=C(COC(=O)CSc1ccc(Cl)cc1)Nc1ccccc1	6
CC(=O)c1ccc(NC(=O)CSc2nnc(C3CC3)n2C2CC2)cc1	6
O=C(NC(=O)c1ccccc1)C1=C(N2CCCC2)COC1=O	5
CC(C)c1ccc(C2(C)NC(=O)N(CC(=O)NCC3COc4ccccc4O3)C2=O)cc1 (stereo not given)	-1
C[C@H](CO)N1C[C@H](C)[C@@H](CN(C)C(=O)Nc2ccc(C(F)(F)F)cc2)Oc2ccc(NS(=O)(=O)c3cn(C)cn3)cc2C1=O	0
COc1ccc(S(=O)(=O)N(C)C[C@H]2Oc3c(NC(=O)C4CCCCC4)cccc3C(=O)N([C@H](C)CO)C[C@@H]2C)cc1	-5
CCN(CC)C(=O)c1[nH]cnc1C(=O)NCc1ccc(CNC(=O)OC(C)(C)C)cc1	6
O=C(COC(=O)CC1CC2CCC1C2)NCc1ccccc1 (stereo not given)	-7
O=C1CN(C(=O)COC(=O)CCC(=O)c2ccc(F)cc2)c2ccccc2N1	-10
CCN(CC)S(=O)(=O)c1ccc(/C=C/C(=O)OCC(=O)NC(=O)C2COc3ccccc3O2)cc1 (stereo not given)	6
Cc1cccc(N(Cc2ccccc2)C(=O)CN2C(=O)NC3(CCCC3)C2=O)c1	1
C[C@H]1CN=C(N(C)C)N1CCc1ccc(F)cc1	5

Compound activity as filed in PubChem BioAssay.
